# NPYLR7 ag = agonists of mosquito NPYLR7 receptor, primary screen, cell-based, Aedes aegypti, calcium fluorescence, mosquito biting behavior. HEK293T NPYLR7/Galpha15, GCaMP6s calcium fluorescence. hit rate 0.15% among 270,000. activation, % at 10 µM. Aedes aegypti neuropeptide Y-like receptor 7 (NPYLR7); in the data active = activation above about 40%;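 note: 0% = vehicle and 100% = reference agonist at the receptor; some compounds past the cut are filed as inactive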
# NPYLR7 ag max-min = recorded beside NPYLR7 ag, whose call it bears; activation, %; measured here: Max-Min RFU normalised activation; some inactives read as strong as hits;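 span of the calcium signal over five minutes; 0% = vehicle and 100% = native peptide agonist; compound fluorescence can raise it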
# An asterisk follows results filed as active; & = joins results of further samples. A portion of the library; count on the stated rates, not on these rows.
SMILES,NPYLR7 ag,NPYLR7 ag max-min
COCc1nc2cc(-c3c(F)cccc3OC)ccc2o1,12,-3
Cc1ccccc1-c1noc(-c2ccc(F)cc2)n1,8,12
CCn1cc2nc(OC)c(CNC(=O)CN3CCOCC3)cc2c1O,6,1
COc1cc(-c2nc3cc(C)ccn3c2NC(C)(C)CC(C)(C)C)ccc1OC(=O)c1ccc(C)cc1,4,9
O=C(CCN1C(=O)CCC1=O)NCC1(c2c(F)cccc2F)CCCC1,3,2
Cn1c(CCC(N)=O)nnc1SCc1ccc(C(N)=O)cc1,2,-4
Cc1nc(NCCNS(=O)(=O)c2cccs2)cc(-n2ccnc2C)n1,-15,-19
COc1ccc(Nc2ncccc2C(=O)N2CCC(c3ccccc3)CC2)cc1,15,1
CCOC(=O)Cc1csc(NC(=S)NC(=O)c2ccccc2Br)n1,3,7
CCNC(=O)[C@@H]1C[C@H](n2cc(Cc3ccccc3)nn2)CN1,9,2
CCCc1cc(=O)n(CC(=O)NCc2ccc(C)cc2)c(-n2nc(C)cc2C)n1,-5,-3
Fc1ccc(-c2noc(CSc3nnc(C4CC4)n3C3CC3)n2)cc1,2,10
COC(=O)c1sc(=S)n(Cc2ccco2)c1C,0,-3
CCOC(=O)N1CCN(c2c(NC3CCCCCC3)c(=O)c2=O)CC1,4,5
CCc1nc2ccc(C(=O)NCCN3CCNC3=O)cn2c1N(CC)CCN(C)C,-5,-7
CCCCOc1ccc(S(=O)(=O)Nc2ccccc2C(=O)NCc2ccc(Cl)cc2)cc1,0,-3
CS(=O)(=O)c1ccc(CN2CCC[C@H]2c2nc(-c3ccnc(N4CCC(C(N)=O)CC4)c3)no2)cc1,-4,-10
CCc1nc2ccc(C(=O)NCCc3c[nH]c4ccccc34)cn2c1N(C)Cc1ccc(OC)cc1,22,12
CCNC(=O)OC1CN(C(=O)OCC)CCC(=O)N(C)c2ccccc21 (stereo not given),4,12
COC(C)(C)CC(C)NC1CCN(c2cccc(C)c2)CC1 (stereo not given),2,-1
Cc1cn(CN2CCCC(C(F)(F)F)C2)c(=O)n1-c1cccc(C#N)c1 (stereo not given),7,4
O=C(NCC1SCCc2ccccc21)C1CC1c1ccco1 (stereo not given),9,6
Cc1sc2nc(C(C)Sc3nnc4n3CCCCC4)[nH]c(=O)c2c1C (stereo not given),-2,2
CCCc1[nH]n(-c2ccc(Cl)c(Cl)c2)c(=O)c1C1=C([n+]2ccc(C)cc2)C(=O)N(CCC)C1=O,-8,1
CCNC(=O)NC(=O)C(c1ccccc1)n1nc(C(=O)O)c2ccccc2c1=O (stereo not given),2,0
CCOc1ccc2nc(-c3c(-c4ccccc4)ncn3CCN)ccc2c1,-1,-1
Cc1ccc(N=P(c2ccncc2)(N2CCCC2)C(C)(C)C)cc1C (stereo not given),2,1
O=C1C(C(c2cccc(F)c2)N2CCN(Cc3ccccc3)CC2)Sc2ncnn21 (stereo not given),-1,-1
Cc1cccc(CN(Cc2ccco2)CC(C)(C)O)c1,-3,5
Cc1cccc(OCC(=O)NC2CCc3[nH]c4cc(Cl)cc(Cl)c4c3C2)c1C (stereo not given),7,9
O=S1(=O)CC2SC(=S)N(c3cccc(O)c3)C2C1 (stereo not given),1&7,-3&3
COc1cccc2c1OCCCN(C(=O)COc1ccc(N3CCN(c4ccccn4)CC3)nn1)C2,7,2
Cc1ccc(NS(=O)(=O)c2c(N)n(C)c(=O)n(C)c2=O)cc1C,2,-1
COc1cccc(Cn2c(=O)c(C(=O)Nc3ccc(F)cc3)nn(-c3ccccc3)c2=O)c1,10,11
Cc1ccc(-n2ncc3c(=O)n(NC(=O)COc4ccccc4C)cnc32)cc1C,3,1
CCCCSC(C)C(=O)Nc1cc(C)[nH]n1 (stereo not given),-4,-8
Nc1nonc1-c1noc(-c2cccc(Br)c2)n1,13,11
COCCNC(=O)c1sc(=O)n(Cc2cc(Cl)ccc2OC)c1C,3,-1
O=C(Nc1cnn(CC(F)F)c1)c1ccc2[nH]c(=O)[nH]c2c1,-6,-8
C=CC[C@@H]1CC=C[C@@H](C)N1C(=O)c1ccc(OC)c(OC2CCN(C(C)=O)CC2)c1,4,3
C=CCCOC(=O)N1[C@@H](c2ccco2)[C@@H](C(=O)NC)C[C@]12CCCCNC2=O,4,9
C=CCN1C(=O)SC(=Cc2cc(Cl)c(OC)c(Br)c2)C1=O,-1,-1
COCCN(Cc1cccs1)C(=O)c1cnc2ccccc2c1,4,3
CC1(C)OC[C@H](COC(=O)c2c(F)cccc2F)O1,-1,-4
COCC(=O)N(Cc1ccc(OS(=O)(=O)c2ccc(F)cc2)cc1)Cc1ccco1,24,14
O=C(CCCS(=O)(=O)c1ccc(Cl)cc1)N1CCN(c2nc3c(Cl)cccc3s2)CC1,19,13
CCOC(=O)C1CCN(c2c(S(=O)(=O)c3ccc(C)cc3)cnc3ccccc23)CC1,-7,-10
COc1cccc(-n2[nH]c3c4c(ccc3c2=O)C(=O)c2ccccc2C4=O)c1,2,0
COc1ccc2[nH]c(C(=O)NCC3CC(C(C)C)=NO3)c(C)c2c1 (stereo not given),7,5
CCN1C(=O)N(Cc2cccc(OC)c2)C(=O)C12CCN(Cc1ccc(-c3ccco3)cc1)CC2,22,8
COc1ccc(S(=O)(=O)N(CC2CC2)C(C)C)cc1C(N)=O,14,13
Cc1ccc(-c2cc(C(=O)Nc3ccc(F)cc3F)c3c(C)noc3n2)s1,15,19
COc1ccc(N2CC(NC(=O)Nc3cc(C)on3)CC2=O)cc1 (stereo not given),8,4
COc1cccc(-c2cc(C(=O)NCCC(C)C)n3nc(-c4ccccc4)cc3n2)c1,10,14
Cn1cc(CN2CCCC(OCc3cccnc3)C2)c(-c2ccc3c(c2)OCCO3)n1 (stereo not given),1,-2
Cc1ccccc1CCNC(=O)CSc1nnc(OC(C)C)s1,-9,-7
Cc1ccccc1C(=O)N1CCSC12CCN(C(=O)c1cc([N+](=O)[O-])cc([N+](=O)[O-])c1)CC2,11,21
CC1=NC2=C(C(=O)CCC2)C(c2cccc(I)c2)C1C#N (stereo not given),12,12
CC1CCc2c(sc(NC(=O)CN(C)CC(=O)Nc3ccc(F)cc3)c2C(=O)OC(C)C)C1 (stereo not given),-3,-7
CC(C)N(C(=S)NC1CCCCC1)c1ccccc1,0,0
# The listing continues:
SMILES,NPYLR7 ag,NPYLR7 ag max-min
CCCc1c(-c2ccccc2)nc2c(-c3ccccc3)c(C)[nH]n2c1=O,-16,-19
COC(=O)CSCC(=O)Nc1sc2c(c1C(=O)OC)CCCCC2,0,-2
CCC(C)C(C(=O)Nc1ncc(C)s1)c1ccccc1 (stereo not given),2,1
Cc1nc(-c2cccc(NCc3cn(C)nc3C(C)C)c2)n[nH]1,1,0
CCOc1cc(/C=C2\C(=N)N3N=CSC3=NC2=O)cc(Cl)c1OS(C)(=O)=O,15,18
CCOC(=O)N1CCC(N2CCCC(Nc3ccccc3)C2)CC1 (stereo not given),-1,-3
CC1CN(C(C)CNCc2cn(C)nc2-c2ccncc2)CC(C)O1 (stereo not given),-2,-7
CCOc1ccc(CN2CCN(Cc3ccc(OC)cc3F)C(CCO)C2)cc1CO (stereo not given),-6,-7
CO[C@H]1C[C@@H]2C[C@H](c3ccccn3)OC[C@]2(O)[C@@H]1N1CCc2c([nH]c3ccccc23)C1,3,15
CCc1ccc(/C=C2/N=C(c3ccccc3)OC2=O)s1,-3,-13
Cc1nc2ncnn2c(N2CCN(C(=O)Cc3ccc(Cl)cc3)CC2)c1Cc1ccccc1,19,7
COCc1c(Br)c(C)nc(OCC(=O)N/N=C\c2cc(I)c(O)c([N+](=O)[O-])c2)c1C#N,7,12
CC(C)NC(=S)N1CCC2(CC1)NC(C(C)C)C(=O)N2Cc1ccccc1 (stereo not given),4,3
C/C(=C/C(=O)NC(C(N)=O)c1ccccc1)c1ccccc1 (stereo not given),-6,-7
CC1(C(=O)Nc2cccc(Oc3ccccc3)c2)CCN1Cc1c(F)cccc1F (stereo not given),9,-1
Cc1ccc2cc(CCNC(=O)CCCc3ccccc3)c(=O)[nH]c2c1C,3,2
COCc1ccc(C(=O)N2CCC(C(=O)Nc3cccc(-c4ccco4)c3)CC2)o1,4,1
COCCCN(Cc1c(-c2ccc(F)cc2)noc1N1CCN(C)CC1)C(=O)C1CCCC1,6,6
CCC(CC)C(=O)N1[C@@H](c2ccccc2)[C@@H](C(=O)NC)C[C@]12CCCCN(CCO)C2=O,2,15
CCS(=O)(=O)c1ccc2oc(-c3ccc(Cl)c(NC(=O)c4ccccc4F)c3)nc2c1,-6,-2
COC(=O)NC(Nc1nnc(C)s1)(C(F)(F)F)C(F)(F)F,3,4
O=C(NC(c1ccc(-c2ccccc2)cc1)c1cnccn1)C1CCN(CCN2C(=O)c3ccccc3C2=O)CC1 (stereo not given),5,2
Cc1nc2ncc3c(=O)n(Cc4ccccc4)ccc3n2n1,0,4
Cc1ccoc1C1=NC(=Cc2ccccc2)NN1,21,11
O=C(CCCl)Nc1ccccc1C(=O)NC1CC1,15,20
COCCNC(=O)c1nn(-c2ccc(C)c(Cl)c2)c(=O)n(Cc2ccccc2C)c1=O,17,19
CCOc1ccc(OCC(=O)Oc2coc(CSc3ncccn3)cc2=O)cc1,-11,-7
O=C(NCC1c2ccccc2CCN1C(=O)CN1CCOCC1)C1CCCCC1 (stereo not given),-6,-8
Cn1ncc(CN2CCN(S(=O)(=O)c3ccccc3)CC2)c1C1CC1,0,-6
Cc1cc(C)n(-c2cc(NCCNC(=O)c3ccc(F)cc3F)ncn2)n1,-5,-12
FC(F)(F)c1nc(N2CCc3ccccc32)c2ccccc2n1,1,2
CN(CCO)C(=O)C1c2ccccc2-c2ccccc21,2,0
O=C(C1CCN(S(=O)(=O)c2cnc[nH]2)CC1)N1CCCCCC1,7,9
CCc1sc(C(=O)N2CCN(CC(=O)Nc3ccc(F)cc3)CC2)cc1C,-7,-6
CN(C)c1ccc(NP2(=O)C=C(c3ccccc3)SC(c3ccccc3)=C2)cc1,3,-1
CC1(C(=O)N2CCN(S(=O)(=O)c3ccc4ccccc4c3)CC2)CC1(Cl)Cl (stereo not given),5,0
CC(C)(C1=NC(C(C)(C)C)CO1)C1=NC(C(C)(C)C)CO1 (stereo not given),-3,-14
CCc1nc(C)c(C(=O)NCc2ccc3c(c2)n(C)c(=O)n3C)o1,2,2
CCN(CC)C(=O)Oc1ccc2c(ccn2Cc2ccccc2-c2ccccc2)c1-c1ccc(C#N)cc1,29,16
Cn1ncc(N2CCC(CNC(=O)c3cn4c(n3)CNCC4)C2)cc1=O (stereo not given),-3,-9
Cc1nc(NCC(c2ccccc2C)N(C)C)c2nc(C)oc2n1 (stereo not given),0&-1,0&-7
N#Cc1c(NC(=O)c2cnccn2)sc2c1CCCC2,6,-1
COC(=O)c1cc(-c2ccc(C=C3C(=O)N(C)C(=O)N(C)C3=O)o2)ccc1Cl,-15,-16
Cc1cccc(-c2nc3scc(CCNS(=O)(=O)c4cc(F)ccc4F)n3n2)c1,-11,-11
O=C(c1cccc(Cl)c1)N(CC(=O)N1CCc2sccc2C1c1ccc(F)cc1)C1CC1 (stereo not given),16,13
CNC(=O)CN1C(=O)CCN(C(=O)COc2ccccc2)CC(OC)c2ccccc21 (stereo not given),4,8
CCOC(=O)C1CCCN(C(=O)c2coc(CN(Cc3ccc(F)cc3)Cc3ccc(C(F)(F)F)cc3)n2)C1 (stereo not given),18,25
